VDR inhibitor = vitamin D3 receptor (human) inhibition | P11473 | VDR-SRC2-3 peptide fluorescence polarization, 2 h | Potency, µM, for the others: max response, negative = inhibition, most hits filed as inhibitors | 400,000 compounds, 0.93% hits | AID 504847; active = well fitted inhibition curve with a large enough effect; inconclusive = small, poorly fitted or top-dose-only effect, or another doubt; inactive = no such curve, though single readings can be large or run the other way; also: series mostly up to about 120 µM
Target sequence (P11473 whole entry, looked up): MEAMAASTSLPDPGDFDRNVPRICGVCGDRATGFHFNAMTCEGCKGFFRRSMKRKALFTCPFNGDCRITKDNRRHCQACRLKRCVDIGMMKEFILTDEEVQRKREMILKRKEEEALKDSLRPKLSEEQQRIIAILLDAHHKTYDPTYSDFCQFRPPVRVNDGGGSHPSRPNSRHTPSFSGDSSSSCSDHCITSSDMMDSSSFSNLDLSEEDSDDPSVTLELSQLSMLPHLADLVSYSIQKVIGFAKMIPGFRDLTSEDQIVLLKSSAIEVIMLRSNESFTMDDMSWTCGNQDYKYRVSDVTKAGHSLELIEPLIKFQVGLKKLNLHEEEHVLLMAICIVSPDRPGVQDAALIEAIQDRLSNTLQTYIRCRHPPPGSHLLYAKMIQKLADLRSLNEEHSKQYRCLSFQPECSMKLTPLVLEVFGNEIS
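After 23 nl compound addition and a short centrifugation, plates sat for 2 hours at ambient temperature; polarization of fluorescence then indicated loss of VDR binding to peptide SRC2-3.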
An asterisk follows results filed as active; ? = inconclusive; & = joins results of further samples. % is scaled to controls: 0 for no effect and ±100 for the full control effect; potency is read from the fitted curve at half-maximal effect. Only part of the results is shown (hit frequency here may not be typical).

No.	SMILES	VDR inhibitor
1	CCOC(=O)C(=O)Nc1nnc(CCc2ccccc2)s1	-10.9%
2	COc1ccc(-c2nc3ccc(NS(=O)(=O)c4ccc(Cl)cc4)cc3o2)cc1	10.9%
3	O=C(CSc1nnc(-c2ccco2)o1)Nc1cccc([N+](=O)[O-])c1	4.6%
4	Cc1cc(N2C(=O)C(O)=C(C(=O)c3cc4ccccc4o3)C2c2ccc(Br)cc2)no1 (stereo not drawn)	?
5	CCOC(=O)C1=C(c2ccccc2)NC(=S)NC1C (stereo not drawn)	-3.3%
6	CC(C)(C)OC(=O)NNC(=O)C12CC3CC(CC(C3)C1)C2	-4.2%
7	CCCCNC(=O)c1cc2n(n1)C(C(F)(F)F)CC(c1ccccc1)N2 (stereo not drawn)	-0.7%
8	Cc1ccc(C)c(NC(=O)CN2C(=O)C(C)(C)c3ccccc32)c1	3.7%
9	N#C/C(=C/c1ccc(N2CCCCC2)o1)c1cccc(F)c1	39.8µM*
10	O=[N+]([O-])c1cc2c(cc1CN1CCN(c3ccccc3)CC1)OCO2	-12.4%
11	Cc1ccc(C(=O)Nc2cc3c(cc2C)n(C)c(=O)c(=O)n3C)cc1	-1.9%
12	CCOc1ccccc1NC(=O)CN(C)S(=O)(=O)c1ccc2[nH]c(=O)oc2c1	2.5%
13	Cc1cc(C)cc(C(=O)OCC(=O)N2CCCC2)c1	-1.7%
14	CS(=O)Cc1cc(Sc2ccccc2)nc(-c2ccncc2)n1 (stereo not drawn)	10.4%
15	O=C(NCc1ccccc1Cl)C1CCC(CNS(=O)(=O)c2ccc(Cl)cc2)CC1 (stereo not drawn)	8.7%
16	Cc1ccc(Cl)cc1NC(=O)CSc1nnc(C)n1-c1ccccc1	-0.9%
17	COc1ccc(/C=C2\SC(=O)N(CCNC(=O)C3CSC4(C)CCC(=O)N34)C2=O)cc1 (stereo not drawn)	-8.5%
18	CCOC(=O)c1c(-c2ccccc2)csc1NC(=O)CSc1nnnn1C	1.3%
19	COc1cc(CN/C(C)=C(\C#N)C(N)=O)cc(OC)c1OC	10.4%
20	O=C(NNC(=O)c1ccccc1F)c1ccc(S(=O)(=O)N2CCCC2)cc1	-2.2%
21	Cc1ccc(Cl)cc1N1CCN(C(=O)Cc2c(C(=O)O)[nH]c3ccccc23)CC1	12.0%
22	CCOc1ncc(S(=O)(=O)N2CCN(CC)CC2)cc1C(=O)O	3.9%
23	Fc1ccc(N2CCN(c3ncnc4onc(-c5ccc(Cl)cc5)c34)CC2)cc1	-8.7%
24	O=C(Nc1ccc(N2CCOCC2)cc1N1CCOCC1)c1ncoc1-c1cccc(F)c1	7.8%
25	CC(=O)Nc1ccc(NC(=O)COC(=O)CCc2nc3ccccc3s2)cc1	-9.0%
26	CCn1nc(C)cc1Nc1ccccc1	-8.0%
27	COc1ccc(C2/C(=C(/O)c3ccccc3)C(=O)C(=O)N2CC(C)O)c(OC)c1 (stereo not drawn)	2.3%
28	O=S(=O)(NCc1ccccc1)c1cccc2nsnc12	5.9%
29	CC(C)NC(=O)CN1CCC(c2ccccc2)C(O)C1 (stereo not drawn)	-7.9%
30	Cc1ccc(CNC(=O)CN2C(=O)CSc3ccc(S(=O)(=O)N4CCCCC4)cc32)cc1	-16.8%
31	O=C(NCc1ccc(N2CCCC2=O)cc1)c1cc(COc2c(F)cccc2F)on1	25.1%
32	Cc1ccc(S(=O)(=O)NC(=NCC(=O)O)c2ccc(F)cc2)cc1	8.1%
33	CC(=O)C1C(c2cccc(F)c2)c2c(n[nH]c2C)CC1(C)O (stereo not drawn)	-13.8%
34	Cc1nnc(Sc2nc3ccccc3o2)c2ccccc12	-18.6%
35	Cc1[nH]c2ccccc2c(=O)c1CN(C)Cc1ccccc1	4.0%
36	CC(=O)SCC[N+](C)(C)C	0.0%&10.5%
37	Cc1cc(C)c(Cn2c(CCNC(=O)c3ccco3)nc3ccccc32)c(C)c1	-3.3%
38	COCCCn1c(=O)c2sccc2n2c(CCCC(=O)Nc3ccc(F)c(F)c3)nnc12	0.5%
39	CC(=O)c1cc2c(cc1O)OC(C)(C)C=C2	1.7%
40	NC(=O)N/N=C/c1ccc2cccc(OCc3ccccc3)c2n1	-3.3%
41	CC(=O)Nc1ccc(S(=O)(=O)NCc2ccc3[nH]c(C)cc3c2)cc1	-6.0%
42	O=C(N/C(=C/C=C/c1ccccc1)C(=O)N1CCOCC1)c1ccccc1Br	-27.0%
43	Cc1ccc(C)c(OCC(=O)N2CCN(C(=O)c3ccco3)CC2)c1	-9.9%
44	CC(=O)c1cc2c(cc1NC(=O)c1ccc(C)cc1)OCCO2	-14.3%
45	CN(C)S(=O)(=O)c1ccc(C(=O)NC(=O)CSc2nnnn2C)cc1	-17.4%
46	NC(=S)N/N=C/c1cccc(O)c1O	20.7%
47	O=C(CCC(=O)c1cccs1)Nc1nc2ccccc2s1	24.6%
48	CC(CCc1ccccc1)OS(N)(=O)=O (stereo not drawn)	-1.5%
49	COc1cccc(N2CC(C(=O)Nc3nnc(SCCC4OCCO4)s3)CC2=O)c1 (stereo not drawn)	?
50	C[C@@H]1NC(=O)[C@H](CCC(N)=O)NC(=O)c2cc([N+](=O)[O-])cc(I)c2NCC[C@@H](C(N)=O)NC1=O	-13.0%
51	Nc1nc2c(c(=O)[nH]1)N(C=O)[C@H](CNc1ccc(C(=O)N[C@@H](CCC(=O)O)C(=O)O)cc1)CN2	9.6%
52	Cc1cccc(C)c1NC(=O)CCCn1nc(C)c2c(C)n(-c3ccccc3)nc2c1=O	1.1%
53	COc1cc2c(cc1NC(=O)CSc1nnc(COc3ccc(Cl)cc3)n1C)oc1ccccc12	14.4%
54	C/C(=N\NS(=O)(=O)c1ccc(C)c([N+](=O)[O-])c1)c1ccc2c(c1)OCO2	-12.7%
55	Cc1ccc(OCC2Cn3c(nc4c3c(=O)n(C)c(=O)n4C)O2)cc1 (stereo not drawn)	10.7%
56	Cc1ccc(NC(=O)COC(=O)c2cc(Cl)ccc2[N+](=O)[O-])cc1	-0.9%
57	Cc1occc1-c1nnc(SCC(=O)c2c(N)n(Cc3ccccc3)c(=O)n(C)c2=O)n1C	8.9%
58	CCOC(=O)N/N=C1\CCS(=O)(=O)c2ccc(Cl)cc21	-3.6%
59	Cc1ccc(S(=O)(=O)N(CC(=O)NN=C2CCN(C)CC2)c2ccc(C(C)C)cc2)cc1	-19.4%
60	Cc1ccc(S(=O)(=O)N(C)C)cc1NC(=O)COC(=O)/C=C/c1ccc2ccccc2n1	-22.4%

Random excerpt: two records from the list.
No.	SMILES	VDR inhibitor
21	Cc1ccc(Cl)cc1N1CCN(C(=O)Cc2c(C(=O)O)[nH]c3ccccc23)CC1	12.0%
19	COc1cc(CN/C(C)=C(\C#N)C(N)=O)cc(OC)c1OC	10.4%

Two entries from above in a different format.
#	VDR inhibitor	Structure
53	14.4%	COc1cc2c(cc1NC(=O)CSc1nnc(COc3ccc(Cl)cc3)n1C)oc1ccccc12
54	-12.7%	C/C(=N\NS(=O)(=O)c1ccc(C)c([N+](=O)[O-])c1)c1ccc2c(c1)OCO2

Next section:
No.	SMILES	VDR inhibitor
61	CCNc1nc2c(c(=O)n(Cc3ccccc3)c(=O)n2C)n1Cc1ccccc1	-2.6%
62	COc1ccc(-c2csc(CCn3nc(C)cc3C)n2)cc1OC	-8.6%
63	Cc1noc(C)c1CSCC(=O)Nc1ccccc1N1CCCC1	11.5%
64	CN(C)S(=O)(=O)c1cccc(NC(=O)CCNC(=O)Nc2ccccc2)c1	2.4%
65	O=C(O)CC1S/C(=N/N=C/c2ccc([N+](=O)[O-])cc2)N(c2ccc(O)cc2)C1=O (stereo not drawn)	6.2%
66	O=C(/C=C/c1ccc(F)cc1)Nc1ccc2[nH]c(=O)[nH]c2c1	13.0%
67	COc1ccc([C@@H]2[C@@H]3C(=O)N(C(C)(C)C)C(=O)[C@@H]3[C@]3(Cc4ccccc4)C(=O)N(c4ccc(C)cc4)C(=O)N23)cc1	-10.3%
68	CNC(=O)c1snnc1-c1ccccc1	-2.8%
69	CC1(C)CC(=O)C2=C(C1)OC(c1ccc(O)cc1)C(C#N)=C2N (stereo not drawn)	5.8%
70	O=c1cnnc(N/N=C/C2CC=CCC2)[nH]1 (stereo not drawn)	-3.6%
71	Cc1ccc2c(c1)c(=O)c(C(=O)c1ccc3c(c1)OCO3)cn2Cc1ccc(Cl)cc1	-0.9%
72	Cc1ccc(N2C(=O)C(CC(=O)Nc3cccc(F)c3)N(C3CC3)C2=O)cc1 (stereo not drawn)	-10.5%
73	O=C(NC1CCSc2ccccc21)c1ccccc1Br (stereo not drawn)	9.3%
74	Cc1ccc(S(=O)(=O)Oc2ccc(/C=C3\N=C(c4cccc(C)c4)OC3=O)cc2)cc1	14.7%
75	CCCCNC(=O)COC(=O)c1cc2c(C)nn(-c3ccccc3)c2s1	17.2%
76	COc1ccc(NC(c2ccc(F)cc2)c2nnc(-c3ccccc3Cl)o2)cc1Cl (stereo not drawn)	-17.8%
77	O=Cc1ccc(N2CCCC2)o1	6.7%
78	COC(=O)c1ccccc1NC(=O)c1cccnc1	4.6%
79	COc1cc(C2c3c(oc4ccccc4c3=O)C(=O)N2c2ccccn2)cc(OC)c1OC (stereo not drawn)	4.2%
80	Cc1nc(C)c(C(=O)N/N=C/c2cn(C)c3ccccc23)s1	-5.2%
81	c1ccc(-c2ccc3c(c2)NC(C2Nc4cc(-c5ccccc5)ccc4O2)O3)cc1 (stereo not drawn)	3.8%
82	COc1ccc2[nH]c3c(c2c1)CCN1C(=O)C(CC(=O)NCc2cccc(C(F)(F)F)c2)C[C@H](C(=O)N2CCOCC2)[C@@]31C (stereo partly drawn)	9.5%
83	Cn1c(=O)c2sccc2n2c(CCCC(=O)Nc3ccc(F)cc3F)nnc12	4.3%&-8.7%
84	O=C(c1cc(-c2cccs2)on1)N1CCN(C(c2ccccc2)c2ccccc2)CC1	2.5%
85	O=C(O)C1CCCCC1C(=O)NCCc1ccc(Cl)cc1 (stereo not drawn)	3.0%
86	C/C(=N/NC(=O)c1ccc2c(c1)OCO2)c1ccc(NC(=O)C(F)(F)F)cc1	-6.5%
87	CCN(c1ccc(OC)cc1)S(=O)(=O)c1nnc(NC(=O)CC(C)C)s1	7.3%
88	COc1ccccc1C(=O)NCC(=O)NCCSc1ccc(Br)cc1	8.1%
89	CC/C(=N\NC(=O)c1ccncc1)C12CC3CC(CC(C3)C1)C2	0.4%
90	O=C(O)CC1NC(=O)N(c2ccc(Cl)cc2)C1=O (stereo not drawn)	4.3%
91	CN(CCOc1ccccc1)C(=O)c1cc([N+](=O)[O-])ccc1N1CCOCC1	-10.3%
92	Cc1nc2ccccn2c1C(=O)CSc1ccccc1Cl	-3.5%
93	O=C(Nc1ccc(O)c(-c2nc3ccccc3o2)c1)C1(c2ccc([N+](=O)[O-])cc2)CCCC1	-22.3%
94	CCCC(=O)Oc1ccc(-c2nccc(C(OC)OC)n2)cc1	10.7%
95	O=C(NN1C(=O)/C(=C\c2ccc(O)c([N+](=O)[O-])c2)SC1=S)c1ccccc1Cl	-17.8%
96	CCOC(=O)c1sc(NC(=O)CN(CC(C)C)CC(C)C)c(C(=O)OCC)c1C	-10.3%
97	O=C(NCC1CCCO1)c1ccc(F)c2ccccc12 (stereo not drawn)	-1.5%
98	O=C(NCc1ccccn1)C1CCCN(Cc2cnn(-c3ccccc3)c2-n2cccc2)C1 (stereo not drawn)	6.9%
99	O=c1c2c(nc(NCCO)n1CC1CCCCC1)-c1ccccc1CC21CCCC1	?
100	O=C(NC(=S)Nc1nc(-c2ccc([N+](=O)[O-])cc2)cs1)c1ccco1	-4.9%
101	NC(=O)C1CCN(c2nc(-c3ccccc3)nc3ccccc23)CC1	-1.5%
102	O=c1ccc2cc(S(=O)(=O)N3CCN(c4ccccc4F)CC3)ccc2[nH]1	-0.3%
103	CN(CC(=O)O/N=C(\N)c1ccc(Br)cc1)S(=O)(=O)c1ccccc1	-2.6%
104	O=C(COC(=O)CNC(=O)c1ccccc1F)NCCC1=CCCCC1	-3.3%
105	Cc1nc2oc3c(=O)[nH]cnc3c2c2c1COC(C)(C)C2	12.9%
106	CCc1cccc(C)c1NC(=O)CN1C(=O)C2(SCC(=O)N2c2cccc(F)c2)c2ccccc21 (stereo not drawn)	8.9%
107	COc1ccc(NC(=O)COc2ccc(C(=O)OCC(=O)N(C)C3CCS(=O)(=O)C3)cc2OC)cc1 (stereo not drawn)	-22.6%
108	CC(C)c1ccc(NC(=O)C2C3C=CC4(CN(CCCN5CCOCC5)C(=O)C24)O3)cc1 (stereo not drawn)	0.9%

VDR inhibitor: hit marks shown above.
No.	SMILES	VDR inhibitor
9	N#C/C(=C/c1ccc(N2CCCCC2)o1)c1cccc(F)c1	39.8µM*

Remaining list, next part.
No.	SMILES	VDR inhibitor
109	NC(=NCc1ccccc1)C(N=Nc1ccccc1)C(=O)NCc1ccccc1 (stereo not drawn)	6.9%
110	Cc1ccc(NC(=O)CCn2c(=S)oc3ccccc32)cc1F	3.1%
111	CCOC(=O)C1=C(O)/C(=C/c2cc(C)n(-c3ccccc3)c2C)N=C1C	2.6%
112	COC(=O)Cc1nc2ccccc2[nH]1	-0.7%
113	CCN(CC(=O)Nc1c(F)cccc1F)C(=O)C1Cc2ccccc2CN1S(=O)(=O)CC (stereo not drawn)	-16.4%
114	COc1ccc(Oc2ncc3nc(CCc4ccccc4)c(=O)n(C[C@H]4CCCO4)c3n2)cc1	-2.8%
115	Cc1ccc(C)c(N2CCN(C(=O)CCCOc3cc(=O)n(C)c4ccccc34)CC2)c1	6.3%
116	Cc1cccc(-n2cnc3cc(C(=O)NC4CCCCCC4)ccc32)c1	19.2%
117	COc1ccccc1Oc1ccc2c(c1)C(=O)N(c1ccc(C)cc1)C2=O	14.2%
118	COc1ccc(/C=N/NC(=O)c2cccc([N+](=O)[O-])c2)c2ccccc12	2.0%
119	Cc1ccc(CSc2nc3cccnc3n2Cc2ccc(C(=O)NCc3cccs3)cc2)cc1	1.4%
120	Cc1ccc(C)c(NC(=O)CCOc2ccccc2)c1	12.3%&-16.6%

Assay outcomes deposited in PubChem by National Center for Advancing Translational Sciences (NCATS).
